HPGD block: blocks human HPGD enzyme activity | P15428 | purified HPGD, NADH fluorescence kinetic, PGE2 substrate | Potency, µM, for inactives: at the highest dose activity change, negative = inhibition, most hits filed as inhibitors | 150,000 compounds, 4.3% hits; active = well fitted inhibition curve with a large enough effect (not every such curve was filed as active); inconclusive = small, poorly fitted or top-dose-only effect, or another doubt; inactive = no such curve, though single readings can be large or run the other way;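 further: top concentration of the series not given in the record; plate controls included wells without enzyme; inactives centre near -10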
Target sequence (P15428 whole entry, looked up): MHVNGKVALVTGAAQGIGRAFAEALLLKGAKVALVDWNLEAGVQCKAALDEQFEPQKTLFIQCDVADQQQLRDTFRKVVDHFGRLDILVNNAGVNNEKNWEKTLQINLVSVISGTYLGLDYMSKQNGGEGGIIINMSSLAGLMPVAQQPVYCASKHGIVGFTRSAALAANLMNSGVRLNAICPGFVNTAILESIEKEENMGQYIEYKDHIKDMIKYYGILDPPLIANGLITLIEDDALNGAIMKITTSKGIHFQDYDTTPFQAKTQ
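NADH formation kinetics: reaction with 30 uM PGE2 and 1 mM NAD+ (final), 20 nM enzyme, Tris-HCl pH 8 with Tween 20, after 15 min compound preincubation at room temperature. Fluorescence change, last versus first of five reads.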
Starred values were filed as active, the others as inactive. On the % scale 0 is the no-effect control and ±100 the full control effect; potency means the concentration at half of the fitted maximal effect. This is a subset (hit frequency here may not be typical).

`Cn1nc(C(=O)Nc2ccc(S(=O)(=O)N3CCCCC3)cc2)ccc1=O` gave HPGD block -14.8%.
For COc1cc(/C=c2/sc3nc(-c4ccccc4)c(-c4ccccc4)n3c2=O)cc(OC)c1OC the results were HPGD block -10.0%.
For COc1ccccc1NC(CC(=O)c1ccccc1)C(=O)OCC(=O)c1ccc(Br)cc1 (stereo not given) the results were HPGD block -9.5%.
Screening CSc1nccc(Oc2cncc(Cl)c2)n1 returned HPGD block -8.3%.
For CCN(CC(=O)NCc1ccc(F)cc1)CC(O)COCc1cccc(OC)c1 (stereo not given) the results were HPGD block -2.5%.
`Cc1ccc(/C(O)=C/C(=O)C(=O)NNC(=O)C(O)(c2ccccc2)c2ccccc2)cc1` gave HPGD block -17.2%.
CCc1ccc(S(=O)(=O)Nc2c(C)nn(C)c2C)cc1 was read as HPGD block 2.8%.
O=C(NCC(=O)N(c1ccc(F)cc1)C(C(=O)NCC1CCCO1)c1ccccc1)c1ccco1 (stereo not given) was read as HPGD block -11.6%.
`Cn1c(=O)n(/N=C/c2ccccc2)c2ccccc21` gave HPGD block -20.5%.
For O=C(O)c1c(NC(=O)c2cccc3ccccc23)sc2c1CCC2 the results were HPGD block 15.8µM*.
Screening COc1ccc(CN(CCC(c2ccccc2)c2ccc(OC(C)C)cc2)C(=O)CCl)cc1OC (stereo not given) returned HPGD block inconclusive.
For COc1ccc(N2CCN(Cc3nc4c(c(=O)[nH]c(=O)n4C)n3CC(C)=O)CC2)cc1 the results were HPGD block -16.2%.
For Cc1cccc(C)c1Nc1nnc(SCc2cc([N+](=O)[O-])cc3c2OCOC3)s1 the results were HPGD block 11.2µM*.
CCOc1ccc(N(CC(=O)NCc2cccs2)S(=O)(=O)c2c(C)noc2C)cc1 was read as HPGD block -3.4%.
O=C(CN1CCN(Cc2ccccc2Cl)C1=O)NC1CCCCCCC1 was read as HPGD block -7.6%.
For CCOC(=O)C1=C(Cc2ccc(F)cc2)C(=O)c2ccccc2C1=O the results were HPGD block 7.94µM*.
For Cc1nn(CC(=O)c2ccc(Cl)cc2Cl)c(C)[n+]1N the results were HPGD block -4.9%.
Screening NC(=O)C1CCN(C(=O)c2cc3n(n2)C(C(F)(F)F)CC(c2ccco2)N3)CC1 (stereo not given) returned HPGD block -11.3%.
Screening CCOC(=O)c1c(NC(=O)c2cc3n(n2)C(C(F)(F)F)CC(c2cccs2)N3)sc(C)c1C (stereo not given) returned HPGD block inconclusive.
For Cc1ccn2cc(-c3ccc(NS(=O)(=O)c4ccccc4)cc3)nc2c1 the results were HPGD block 22.4µM*.
`C/C(Cc1ccccc1)=N\NC(=O)CNC(=O)c1ccccc1Br` gave HPGD block -8.1%.
Nc1c(C(=O)NCc2ccc3c(c2)OCO3)nnn1-c1ccc(OC(F)(F)F)cc1 was read as HPGD block -11.8%.
`COc1ccccc1N(CC(=O)Nc1ccc(F)c(F)c1)S(C)(=O)=O` gave HPGD block -0.6%.
Screening O=C(N/N=C/c1ccccn1)C1CC1 returned HPGD block -6.1%.
O=c1oc2ccccc2cc1-c1cn(-c2ccccc2)c(=S)[nH]1 was read as HPGD block inconclusive.
CCn1ncc(/C=N\NC(=O)COc2ccccc2)c1C was read as HPGD block -9.5%.
`O=C(Nc1ccccc1Cl)C1(c2ccccc2)CC1(Cl)Cl` (stereo not given) gave HPGD block 1.2%.
For N#Cc1nc(Cc2cccc3ccccc23)oc1NCc1ccc2c(c1)OCO2 the results were HPGD block -15.5%.
`CCOCCCNC(=O)c1c(-c2ccccc2)noc1C` gave HPGD block -5.9%.
Screening CCOC(=O)CNC(=O)O[C@@H]1C(=O)c2cc(Br)ccc2O[C@H]1c1ccc2c(c1)OCO2 returned HPGD block -11.1%.

The closing 3 entries of the section above are carried over, then new ones follow:
For N#Cc1nc(Cc2cccc3ccccc23)oc1NCc1ccc2c(c1)OCO2 the results were HPGD block -15.5%.
`CCOCCCNC(=O)c1c(-c2ccccc2)noc1C` gave HPGD block -5.9%.
Screening CCOC(=O)CNC(=O)O[C@@H]1C(=O)c2cc(Br)ccc2O[C@H]1c1ccc2c(c1)OCO2 returned HPGD block -11.1%.
Screening CCCCCN1CC(O)=C(c2nc(-c3ccc(Cl)cc3)cs2)C1=N returned HPGD block -20.0%.
O=C(/C=C/c1ccccc1)N1CCCN(C(=O)/C=C/c2ccccc2)CC1 was read as HPGD block -2.6%.
CCOC(=O)CCC(=O)Nc1ccccc1C(N)=O was read as HPGD block -8.6%.
For Cc1ccc2oc3c(c(=O)c2c1)C(c1cccc(Cl)c1)N(CCCN1CCOCC1)C3=O (stereo not given) the results were HPGD block -0.2%.
Nn1c(SCC(=O)Nc2ccc3c(c2)OCO3)nnc1C1CC1 was read as HPGD block -6.8%.
For CCCNc1nc2c(c(=O)[nH]c(=O)n2C)n1CCc1ccccc1 the results were HPGD block -9.4%.
`O=C(COC(=O)c1cc(-c2ccc(Cl)s2)nc2ccccc12)NCc1ccco1` gave HPGD block -15.7%.
For CCOC(=O)O[C@]1(C(=O)COC(=O)CC)CC[C@@H]2[C@@H]3CCC4=CC(=O)C=C[C@@]4(C)[C@H]3[C@H](O)C[C@]21C the results were HPGD block -6.2%.
Screening CCc1cc(/C(Cc2ccccn2)=N\O)c(O)cc1O returned HPGD block -10.4%.
For COC(=O)[C@@H]1CC[C@H](C)[C@@H](c2ccc(C)cc2)N1C(=O)c1ccc(/C=N/O[C@H](C)c2cn([C@@H]3COC[C@H]3O)nn2)cc1 the results were HPGD block -5.9%.

Arranged by count of non-hydrogen atoms (largest number first): some entries from above.
For COC(=O)[C@@H]1CC[C@H](C)[C@@H](c2ccc(C)cc2)N1C(=O)c1ccc(/C=N/O[C@H](C)c2cn([C@@H]3COC[C@H]3O)nn2)cc1 the results were HPGD block -5.9%.
For CCOC(=O)O[C@]1(C(=O)COC(=O)CC)CC[C@@H]2[C@@H]3CCC4=CC(=O)C=C[C@@]4(C)[C@H]3[C@H](O)C[C@]21C the results were HPGD block -6.2%.
For Cc1ccc2oc3c(c(=O)c2c1)C(c1cccc(Cl)c1)N(CCCN1CCOCC1)C3=O (stereo not given) the results were HPGD block -0.2%.
`O=C(COC(=O)c1cc(-c2ccc(Cl)s2)nc2ccccc12)NCc1ccco1` gave HPGD block -15.7%.
Nn1c(SCC(=O)Nc2ccc3c(c2)OCO3)nnc1C1CC1 was read as HPGD block -6.8%.
Screening CCc1cc(/C(Cc2ccccn2)=N\O)c(O)cc1O returned HPGD block -10.4%.

Going on with the list.
Screening COc1ccc(NC(=O)CSc2nnc(Cn3nnc4ccccc43)n2C)cc1 returned HPGD block -2.4%.
`CCCCCNCc1ccc(OCc2ccc(Cl)nc2)c(OC)c1` gave HPGD block -16.4%.
CCn1c(SCC(=O)Nc2ccccc2OC)nnc1-c1cnccn1 was read as HPGD block -22.9%.
CC(=O)C1=C(O)C(=O)N(Cc2ccccc2)C1c1ccco1 (stereo not given) was read as HPGD block -17.0%.
c1ccc(N2CCOCC2)c(Nc2nc3ccccc3n3cnnc23)c1 was read as HPGD block inconclusive.
COc1ccc(CN=Cc2[nH]c3ccc(Br)c(Cl)c3c2O)cc1 was read as HPGD block inconclusive.
`Cc1ccc(S(=O)(=O)NC2(C(=O)O)CCCCC2)cc1` gave HPGD block -5.0%.
C=CCSc1nc2nc(C)cc(C)n2n1 was read as HPGD block -17.6%.
Screening Nn1cnnc1N/N=C/c1cc(Br)cc(Br)c1O returned HPGD block inconclusive.
For O=C(CN1CCN(c2cccc(Cl)c2)CC1)N1CCCC1 the results were HPGD block -2.3%.
`CCOC(=O)c1cnc(Nc2ccc(OCC)cc2)nc1C` gave HPGD block -4.5%.
Screening CC1(C)CC(=O)C2=C(C1)NC(Nc1nc3ccccc3o1)=NC21CCCC1 returned HPGD block -16.6%.
`Cc1cccc(OCC(=O)N2CCC(N3CCOCC3)CC2)c1` gave HPGD block -5.0%.
Screening O=C(c1cnccn1)N1CCC[C@@]2(CCN(c3ccccc3)C2)C1 returned HPGD block -16.5%.
Screening CCCc1cc(C(=O)NNC(=S)NC(C)c2ccccc2)cs1 (stereo not given) returned HPGD block -8.1%.
For CC(=O)OC1CC(C)N(C(=O)c2ccccc2)c2ccc(C)cc21 (stereo not given) the results were HPGD block -3.6%.
Screening COc1ccc(NS(=O)(=O)c2cc(NC(=O)c3ccc(C)o3)ccc2N2CCCCC2)cc1 returned HPGD block -8.2%.
Cc1cccc(OCC(=O)NC(=S)N2CCCc3ccccc32)c1 was read as HPGD block -24.8%.
For O=C(Nc1nc2c(s1)CCCC2)c1cc(-c2ccc3c(c2)OCO3)nc2ccccc12 the results were HPGD block inconclusive.
For CCOC(=O)C1=C(C)NC(=O)NC1C (stereo not given) the results were HPGD block -1.2%.
Screening CC12CCC(=O)N1c1c(sc3nc(N4CCOCC4)c4c(c13)CCCC4)C(=O)N2 (stereo not given) returned HPGD block inconclusive.
O=C(Nc1cccc(-c2nc3ccccc3[nH]2)c1)c1cccc(NC(=O)c2ccco2)c1 was read as HPGD block inconclusive.
Screening CC(O)C(NS(=O)(=O)c1ccc(Cl)cc1)C(=O)OCC(=O)N1CCN(c2ccccc2)CC1 (stereo not given) returned HPGD block -4.3%.
`Cc1cccc(NC(=O)Nc2cccc(F)c2)n1` gave HPGD block -16.7%.
Screening CCCCc1nnc(NC(=O)CC(=O)Nc2ccccc2C(=O)O)s1 returned HPGD block -16.8%.
For COCCn1cc(C(=O)N2CCN(C)CC2)c2c3ccccc3n(C)c2c1=O the results were HPGD block inconclusive.
For O=C(NC(=S)Nc1ccc2c(c1)OCCO2)c1ccc(F)cc1Cl the results were HPGD block -7.3%.
For CC1(C)CC(=O)C2=C(C1)OC(N)=C(C#N)C21C(=O)N2CCCc3cccc1c32 (stereo not given) the results were HPGD block -8.7%.
For O=S(=O)(c1ccc(F)cc1)N1CCN(CC(O)COCc2cccs2)CC1 (stereo not given) the results were HPGD block 0.8%.
`CC(C)c1ccc(-c2c(C#N)c(N)nc3c2CCCCC3)cc1` gave HPGD block inconclusive.
For CC(C)CN(CC(C)C)C(=S)NC1CCCCC1 the results were HPGD block -6.6%.
For COc1ccc(OCC(=O)Nc2nnc(-c3ccco3)s2)cc1 the results were HPGD block -22.6%.
Screening Cc1ccc(CSc2nc3ncccc3[nH]2)cc1 returned HPGD block inconclusive.
Screening Cc1cc(C)cc(-n2nnc(C(=O)NCc3ccc4c(c3)OCO4)c2N)c1 returned HPGD block -12.0%.
`COc1cc(CNn2c(C)n[nH]c2=S)cc(Cl)c1OCc1ccccc1` gave HPGD block 15.8µM*.
C#CCn1c(=NC(=O)CN2C(=O)CCC2=O)sc2cccc(C)c21 was read as HPGD block -2.1%.
For O=C(NC(CO)(CO)CO)c1coc(=O)c(Br)c1 the results were HPGD block -15.8%.
Screening O=C(Nc1ccccc1)NC1CC2CCC(C1)N2Cc1nnnn1Cc1ccc2c(c1)OCO2 (stereo not given) returned HPGD block 0.7%.
O=C(NC(=S)Nc1cccc(Cl)c1N1CCCCC1)c1ccco1 was read as HPGD block -10.9%.
Screening N/C(=N\OC(=O)c1ccco1)c1ccc(Br)cc1 returned HPGD block -10.6%.
COC(=O)c1ccccc1NC(=O)CSc1nc(N)cc(N)n1 was read as HPGD block -15.8%.
CCOc1ccccc1OCC(=O)Nc1ccc(S(=O)(=O)Nc2ncccn2)cc1 was read as HPGD block -15.7%.
Screening O=C(c1ccccn1)N(Cc1ccco1)C1(C(=O)NC2CCCCC2)CCCCC1 returned HPGD block -3.6%.
For O=C(O)C1CCC(=O)N(C2CC2)C1c1ccccc1 (stereo not given) the results were HPGD block -4.9%.
CCOc1cc(/C=N/O)cc(Br)c1OCC was read as HPGD block -5.9%.
CCCCN(c1ccccc1)c1ncnc2nc[nH]c12 was read as HPGD block -11.0%.
For CC1(C)CC(=O)c2cnc(NC(=O)C3CCCC3)nc2C1 the results were HPGD block -1.3%.
Cc1csc(CCc2nc(C)cs2)n1 was read as HPGD block 1.0%.
For O=C(Nc1ccc(NC(=S)NC(=O)c2cccs2)cc1)c1ccccc1 the results were HPGD block -8.8%.
O=C(Nc1ccc2c(c1)OCCO2)c1ccc(Br)o1 was read as HPGD block 28.2µM*.
`CC1C(c2ccccc2)N(C)C(c2ccccc2)CC1(O)c1ccccc1` (stereo not given) gave HPGD block -20.2%.
CCCCOC(=O)C[N+](C)(C)CCOC1CC2CCC1(C)C2(C)C (stereo not given) was read as HPGD block -4.1%.
`CCN(CC)S(=O)(=O)c1cccc(C(=O)N/N=C/c2cccc(O)c2O)c1` gave HPGD block -8.9%.
For CCN(CC)C(=O)C1CCCN(C(=O)Nc2ccc(NC(=O)N3CCCC(C(=O)N(CC)CC)C3)cc2)C1 (stereo not given) the results were HPGD block -7.6%.
Screening CCOc1ccc2nc(NC(=O)CSc3nc4cccnc4n3C)sc2c1 returned HPGD block -1.4%.
`COc1ccc(S(=O)(=O)NCC(=O)N(CC(=O)NCC2CCCO2)c2cc(C)ccc2C)cc1` (stereo not given) gave HPGD block -8.4%.
COc1ccccc1N1CCN(CC(=O)Nc2sccc2C#N)CC1 was read as HPGD block -12.2%.
Screening CC(=O)Nc1ccc(NC(=O)c2ccco2)cc1 returned HPGD block -12.2%.
Screening COc1ccc(N2CC(C)Cn3c2nc2c3c(=O)n(Cc3ccc(F)cc3)c(=O)n2C)c(OC)c1 (stereo not given) returned HPGD block -15.7%.
For COc1ccccc1/C=C(/C(=O)OCC(=O)Nc1cc(C)ccc1C)c1ccccc1 the results were HPGD block -15.1%.
Screening COc1cccc(CNCCSc2nnnn2C)c1 returned HPGD block -13.5%.
Cc1ccc(-c2nn3c(=O)c(C)nnc3s2)cc1 was read as HPGD block -12.4%.
Cn1c(SCC(=O)Nc2cccc(F)c2)nnc1-c1cccnc1 was read as HPGD block 1.3%.
For Cc1cccc(OCCNc2cc(N3CCOCC3)ccc2[N+](=O)[O-])c1 the results were HPGD block -15.5%.
For COCCNC(=O)CCn1c(=O)oc2ccccc21 the results were HPGD block -3.6%.
`O=C(CN1CCN(Cc2ccccc2Cl)CC1)N/N=C/C=C\c1ccccc1[N+](=O)[O-]` gave HPGD block -5.7%.
Screening NCc1ccccc1COc1ccccc1 returned HPGD block -4.2%.

Assay outcomes (PubChem)
